LT uptake inh = qHTS Assay for Anthrax Lethal Toxin Internalization. Cells, anthrax lethal toxin internalization, FRET ratio (460/530). Potency, µM (titrated, usually from 40 µM), for the others: at the highest dose activity change, negative = inhibition, usual class: inhibitors. actives 0.67% (n = 70,000); active = well fitted falling ratio curve with the 530 nm signal flat; inconclusive = other ratio curves, or a change in one channel alone; inactive = flat curves in the ratio and both channels; the % refers to the ratio; note: % is set by controls: 0 for no effect and ±100 for the full control effect; nearly all actives have a fitted effect of over 50% in size; tested in ME-180 cells; beta-lactamase reporter
Prx2 Sm inh = Schistosoma Mansoni Peroxiredoxins (Prx2); Schistosoma mansoni peroxiredoxin 2 (Prx2); S. mansoni Prx2 activity coupled to TGR/GSH (TGR is thioredoxin glutathione reductase), NADPH fluorescence loss, qHTS; some inactives read as strong as hits; Potency, µM; actives 0.07% (n = 65,000); AID 448, 2006; active means full or partial inhibition curve with a strong effect at the top dose; inconclusive means weaker partial or single-point curve; inactive means no accepted curve; note: series up to 57 µM; many of its hits are not listed in these tables
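qHTS, coupled TGR/Prx2 format; 15 min compound preincubation at RT; reaction started with H2O2 (2.5 mM aliquot); kinetic NADPH fluorescence decrease, ex 365/em 450 nm.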
* hit, by the source's call; ? = inconclusive; / = no result given; [ ] = another dose, or the depositor's remark. Potency is the fitted concentration of half-maximal effect. Some of the compounds tested. The share of hits here may be higher or lower than overall.

SMILES,Prx2 Sm inh,LT uptake inh
CC(c1ccccc1)n1cc(C(=O)NCCCn2ccnc2)nn1 (stereo not given),>57,9.8%
CC(C(=O)NCCC1=CCCCC1)N1C(=O)c2ccccc2C1=O (stereo not given),>57,-7.8%
CC(C)C(C(=O)NCc1ccco1)N(C(=O)CNS(=O)(=O)c1ccc(Cl)cc1)C1CCCC1 (stereo not given),>57,-26.9%
O=C(NCc1cccnc1)c1cccc(Cl)c1,>57,8.0%
O=C(CS(=O)CC(=O)Nc1cccc2c1CCCC2)Nc1ccc(F)cc1 (stereo not given),>57,-20.2%
Cc1ccccc1NC(=O)CN(C)S(=O)(=O)c1cccc2cccnc12,>57,-5.1%
CC(=O)Nc1c(C(=O)O)oc2ccccc12,>57,2.8%
O=C(NCc1ccc2c(c1)OCO2)C1CC(=O)N(c2ccc(O)cc2)C1 (stereo not given),>57,-4.5%
COC(=O)C(NS(=O)(=O)c1ccc(NC(C)=O)cc1)C(C)C (stereo not given),>57,-5.8%
O=C(NCC12CC3CC(CC(C3)C1)C2)c1nn2c(c1Cl)NC(c1ccco1)CC2C(F)(F)F (stereo not given),>57,-14.3%
CNc1nnc(CSc2nc(C)cc(C)n2)s1,>57,3.1%
O=C(c1ccccc1)N1CCN(CC#Cc2ccccc2)CC1,>57,0.5%

Later entries:
SMILES,Prx2 Sm inh,LT uptake inh
CC1(C)CC(=O)c2cn3c(nc2C1)nc1ccccc13,>57,0.7%
O=c1c(O)c(-c2ccc(O)c(O)c2)oc2c(OC[C@H]3O[C@@H](O)[C@@H](O)[C@H](O)[C@@H]3O)c(O)cc(O)c12,>57,-13.1%
CCCCOC(=O)n1c(SCC(=O)N(CC)CC)nc2ccccc21,>57,18.7%
CC1=C(C(=O)Nc2ccccc2)C(c2ccc(C)o2)n2c(s/c(=C\c3ccco3)c2=O)=N1 (stereo not given),>57,?
Fc1cc2nccnc2cc1N1CCSCC1,>57,/
CCC(=O)c1ccc(N2CCN(C(=O)COc3ccc(F)cc3)CC2)c(F)c1,/,6.7%
Cc1c(-c2cccs2)[n+](=O)c2c(n1[O-])CCC2,>57,-3.9%
CCN(CC)CCCNc1oc(-c2ccc(OC)c(OC)c2)nc1C#N,>57,/
c1csc(CNc2ncncc2-c2ccc3c(c2)OCO3)c1,>57,-12.3%
CCOc1ccc(NC(C)=O)cc1N,/,-5.8%
O=C(NCc1ccccn1)c1cc2cc(Br)ccc2oc1=O,>57,-4.3%
O=C(CCc1nc(-c2ccccc2F)no1)NCCc1ccccc1Cl,>57,?

Next records follow:
SMILES,Prx2 Sm inh,LT uptake inh
CCCC(Cl)CCCC(Cl)CCC(Cl)CCC(Cl)CCC(Cl)CCCC(Cl)CCC (stereo not given),/,-11.1%
Cc1ccc(P(=O)(OCCN2CCOCC2)C(C)(C)C)o1 (stereo not given),>57,-11.4%
O=C(Nc1ccc(Cl)cc1C(=O)Nc1ccccn1)c1ccco1,>57,-14.5%
COc1cc(OC)c(C2N(C)c3ccccc3N2C)cc1OC,>57,-7.1%
Clc1ccc2nc(CN3CCCc4ccccc43)cn2c1,>57,-4.6%
CCCNC(=O)Cn1cccc1C(=O)c1ccccc1,>57,1.3%
Cc1nc2cnc(N3CCOCC3)nc2n(CCC#N)c1=O,>57,-2.6%
COc1ccc(C(CNC(=O)COc2ccccc2C#N)N2CCOCC2)cc1 (stereo not given),>57,-1.3%
CCn1c(SCC(=O)Nc2nc(C)c(C)s2)nnc1-c1cccnc1,>57,20.2%
CN1CCN(CCCNC(=O)c2cc3c(=O)n(C)c4ccccc4c3s2)CC1,>57,10µM*
CC1CCCCC1NS(=O)(=O)c1ccc(-n2cnnn2)cc1 (stereo not given),>57,11.2%
Cn1c(Cc2ccccc2)nnc1SCC(=O)N1CCN(c2ccccc2)CC1,>57,-8.2%

(continued)
SMILES,Prx2 Sm inh,LT uptake inh
Cc1ccc(C)c2[nH]c(=O)c(C(c3nnnn3C3CCCC3)N3CCOCC3)cc12 (stereo not given),>57,-13.9%
Cc1cc(C)cc(OP(=O)(Oc2cc(C)cc(C)c2)Oc2cc(C)cc(C)c2)c1,/,?
Cn1c(COc2ccccc2)nnc1SCc1cc(=O)[nH]c2ccccc12,>57,-21.5%
CC(=O)Nc1ccccc1C(=O)N1CCc2ccccc21,>57,-10.0%
CCn1c(SC/C=C/c2ccccc2)nnc1-c1cccs1,>57,?
S=C1SCN(C2CCCCCCCCCCC2)CN1C1CCCCCCCCCCC1,>57,-7.6%[8 µM]
Cn1c(C(=O)NCC2CCCO2)cc2c(=O)[nH]c3ccccc3c21 (stereo not given),>57,6.1%
CCOc1ccc2nc(NC(=O)C3CCCN(S(=O)(=O)c4cccs4)C3)sc2c1 (stereo not given),>57,-17.6%
COc1ccccc1N1CCN(C(=O)CSc2nc3ccccc3c(=O)n2CC2CCCO2)CC1 (stereo not given),>57,-7.9%
COc1cc(NC(=O)c2ccco2)c(OC)cc1NC(=O)Nc1cccc(Cl)c1,>57,?
FC(F)(F)c1ccccc1-c1nc(-n2ccnc2)c2ccccc2n1,>57,-12.4%
COc1ccc(C2(C(=O)NCCCN3CCOCC3)CCOCC2)cc1,>57,0.3%

(next part)
SMILES,Prx2 Sm inh,LT uptake inh
CC1CSc2nnc(CCc3ccccc3)n21 (stereo not given),>57,4.7%
COc1cccc(NC(=O)Cn2cnc3sc(C)c(S(=O)(=O)N4CCN(C)CC4)c3c2=O)c1,>57,-10.7%
[O-]/[N+](=C/c1cccnc1)c1ccc(Br)cc1,/,-8.1%
Cc1ccc(Cl)cc1N1CCN(C(=O)C2CCC(=O)N2C(C)C)CC1 (stereo not given),>57,1.0%
COc1ccc(-c2nc(C#N)c(N3CC(C)OC(C)C3)o2)cc1OC (stereo not given),>57,-12.8%
CCCS(=O)(=O)N1CCN(Cc2ccccc2C(F)(F)F)CC1,>57,-5.1%
CCOC(=O)N1CCN(S(=O)(=O)Cc2ccccc2)CC1,>57,-21.5%
CN1CCc2cc(Cl)c(O)cc2[C@H](c2ccccc2)C1,>57,3.8%
COc1ccc(C(=O)C(CO)Oc2ccccc2OC)cc1OC (stereo not given),>57,2.5%
Cn1c(=O)c2c(nc(NCCCO)n2C/C=C/c2ccccc2)n(C)c1=O,>57,4.0%
COC(=O)COc1ccc(S(=O)(=O)NCC2CCCO2)cc1Cl (stereo not given),>57,?
NC(=O)c1ccc(C2SCC(=O)N2Cc2ccccc2)cc1 (stereo not given),>57,0.6%

(listing goes on)
SMILES,Prx2 Sm inh,LT uptake inh
O=C(O)c1ccc2[nH]cc(CCCCN3CC=C(c4ccccc4)CC3)c2c1,/,-11.9%
COc1ccc(C(=O)Nc2nc(-c3cccs3)cs2)cc1,>57,?
CCSc1nnc(NC(=O)c2csc(C)c2)s1,>57,3.4%
O=S(=O)(Nc1ccc2c(c1)nc1n2CCN(Cc2ccccc2)C1)c1ccc(F)cc1,>57,?
Cc1ccc(C)c(N(C(=O)CCC(=O)Nc2cc(C)on2)C(C(=O)NC2CCCC2)c2ccco2)c1 (stereo not given),>57,5.5%
O=[N+]([O-])c1ccc2nc[nH]c2c1,/,-1.9%
COc1ccc(CNC(=O)C2CCN(S(=O)(=O)c3c(C)n[nH]c3C)CC2)cc1,>57,9.7%
O=C(c1ccccc1)c1coc2ccc(O)c(CN3CCOCC3)c12,>57,?
COC(=O)c1[nH]c2ccc(Cl)cc2c1NC(=O)CN1CCC(C(N)=O)CC1,>57,-3.8%
CC1(C)CC(=O)C=C(NC2CCS(=O)(=O)C2)C1 (stereo not given),>57,-5.0%
COC(=O)C1=C(N)Oc2cc(C)n(CC3CCCO3)c(=O)c2C1c1ccc(Cl)cc1 (stereo not given),>57,26.2%
Clc1ccc(CSc2nnc([C@@H]3CCCN3)o2)cc1Cl,>57,3.5%

Compound profiles, from the list above. Screens in order: Prx2 Sm inh	LT uptake inh
Entry for `COC(=O)C1=C(N)Oc2cc(C)n(CC3CCCO3)c(=O)c2C1c1ccc(Cl)cc1` (stereo not given) = >57	26.2%
Entry for `CCSc1nnc(NC(=O)c2csc(C)c2)s1` = >57	3.4%
Entry for `CC1(C)CC(=O)C=C(NC2CCS(=O)(=O)C2)C1` (stereo not given) = >57	-5.0%
Entry for `COc1ccc(C(=O)Nc2nc(-c3cccs3)cs2)cc1` = >57	?
Entry for `Cc1ccc(C)c(N(C(=O)CCC(=O)Nc2cc(C)on2)C(C(=O)NC2CCCC2)c2ccco2)c1` (stereo not given) = >57	5.5%

Continued.
SMILES,Prx2 Sm inh,LT uptake inh
C=CCN(CC=C)c1nc2ccccc2nc1C(C#N)C(=O)OCCOC (stereo not given),>57,/
O=C(Nc1c(C(=O)N2CCOCC2)cnn1-c1ccccc1Cl)c1ccco1,>57,?
COC(=O)c1ccsc1NC(=O)CN1CCN(c2ccc(F)cc2)CC1,>57,-9.3%
COC(=O)c1ccccc1N(C)C(=O)C12CCC(C)(C(=O)O1)C2(C)C (stereo not given),>57,8.6%
COc1cccc2cc(C(=O)N3CCC(C)CC3)c(=O)oc12,>57,-2.7%
Cc1ccc(Nc2nc(Oc3ccc(OCc4ccccc4)nn3)nc(N3CCOCC3)n2)cc1,>57,3.2%
CCCOc1ccc(CSc2nnc(CCC)n2N)cc1,>57,-11.8%
CC(Oc1ccc(-c2ccccc2)cc1)C(=O)O (stereo not given),>57,-12.4%
C=CCn1c(CSc2nc3ccccc3s2)nnc1SCC(=O)OCC,/,-3.9%
CCn1nc(-c2ccccc2)nc2c(=O)n(C)c(=O)nc1-2,>57,8.1%
O=C(CN1CCCCCC1=O)OCc1ncc(-c2ccccc2)o1,>57,12.4%
CCN(CC)S(=O)(=O)c1ccc(C(=O)Nc2c3c(nn2C(C)(C)C)CS(=O)(=O)C3)cc1,>57,-1.3%

(cont.)
SMILES,Prx2 Sm inh,LT uptake inh
Nc1ncnc2c1ncn2[C@H]1O[C@@H](C(=O)O)[C@@H](O)[C@H]1O,>11.4,5.4%[8 µM]
COC(=O)c1ccc(Oc2nc(Nc3ccccc3)nc(N(C)C)n2)cc1,/,-29.6%
Cc1nnc2n(c1=O)C(CS(=O)(=O)c1ccccc1)CS2 (stereo not given),>57,/
CCOC(=O)c1c(C)[nH]c(C(=O)COC(=O)c2oc3ccc(OC)cc3c2C)c1C,>57,-4.0%
CC(=O)N1C(=O)C2(C(C#N)=C(N)Oc3cc(C)oc(=O)c32)c2ccccc21 (stereo not given),>57,-22.4%
COc1cccc(CC(NC(C)=O)C(=O)NC2CCN(c3nc(C)cc(C)c3C#N)CC2)c1 (stereo not given),>57,4.6%
Cc1ccc(Cn2nnc(C(=O)Nc3cc(C)ccc3C)c2N)cc1,>57,?
c1ccc(CN2CC[C@@]3(CCCNC3)C2)cc1,>57,10µM*
C=CCn1c(N)cc(=O)nc1SCC(=O)NC(C)c1ccccc1 (stereo not given),>57,5.8%
COc1ccccc1OCCCn1c(=O)oc2ccc(C)cc21,>57,-3.1%
CCN(CC)C(=O)C(C)N(C#N)c1nc(SC)nc(N(C)C)n1 (stereo not given),>57,-11.7%
Cc1nc(=O)c(-c2ccccc2)c(C)n1-c1cccc(C(=O)O)c1,>57,/

Other compounds
SMILES,Prx2 Sm inh,LT uptake inh
COc1ccc(N(C)C(=O)Nc2ccc3c(c2)nnn3C)cc1,>57,1.8%
CC(=O)N1CCN(S(=O)(=O)c2ccc(S(=O)(=O)NCC(C)C)cc2)CC1,>57,-0.8%
Clc1ccc(CC[C@H](Cn2ccnc2)Sc2c(Cl)cccc2Cl)cc1,>57,9.1%[3.58 µM]
COc1ccc(-n2c(=O)cc(N3CCOCC3)[nH]c2=O)cc1,>57,4.3%
COc1ccc(NC(=O)CSc2nnc(Cc3cccn3C)n2-c2ccc(F)cc2)cc1OC,>57,-2.7%
O=C(O)C1C2CCC(C2)C1C(=O)Nc1cc(F)ccc1F (stereo not given),>57,1.1%
Cc1ccc2nc(CCc3nc4ccc(C)cc4o3)oc2c1,>57,-14.5%
CCOc1ccc(N2C(=O)NC(Cc3c[nH]c4ccccc34)C2=O)cc1 (stereo not given),>57,-16.3%
Cc1cc(C)n2c3c(c(C#N)c2n1)CCCC3,>57,3.2%
C=CCNS(=O)(=O)c1nc(C)c(Cl)c(C)c1C#N,>57,9.0%
O=C(Cc1ccccc1)Nc1ccc(N2CCOCC2)cc1N1CCOCC1,>57,?
Cn1cnc([N+](=O)[O-])c1Sc1nnc(-c2cccnc2)n1C,?,-9.8%[8 µM]

Further compounds
SMILES,Prx2 Sm inh,LT uptake inh
CO[C@H]1OC[C@@]2(C)[C@@H]3C4=C(CN2C(=O)OC(C)(C)C)[C@H](C)[C@H](CO)[C@H](CO)[C@H]4CC[C@H]13,/,?
COc1ccc(OC)c(-n2c(SCC(C)=O)nnc2-c2cccc(S(=O)(=O)N(C)C)c2)c1,>57,-3.0%
CN(/N=C\c1ccccc1O)c1ccc2ccccc2n1,>57,?
COc1cccc(-n2nnnc2SCC(=O)NCc2ccc3c(c2)OCO3)c1,>57,-0.5%
COc1cccc(-c2nc(-c3ccc(NC(=O)c4cccnc4)cc3)no2)c1,>57,-0.1%
